miR-21 reporter: miR-21 reporter, rising signal; Potency, µM (top dose mostly 38.3 µM), without a hit: at the top dose reporter change, positive = more light; 340,000 tested, under 10 active; HeLa miR-21 FLuc reporter, luciferase, 48 h; AID 2288; active = well fitted rising curve with a large enough effect; inconclusive = small, poorly fitted or top-dose-only effect; inactive = no such curve, though single readings can be large or run the other way;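 further: % of control where 0% means no effect; miR-21 action dims this reporter so a rising signal means less miR-21 action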
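HeLa cells endogenously expressing miR-21, stably carrying CMV-driven firefly luciferase with a downstream miR-21 binding site, 2000 cells/well. Titrations up to approximately 40 uM, 48 hours; luciferase luminescence read.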
* hit, by the source's call; ? = inconclusive.

molecule	miR-21 reporter
CCCCN(CC)CCNC(=O)c1nn(C)c2c1CS(=O)(=O)c1ccccc1-2	-17%
COc1ccc(Cl)cc1NC(=O)CCCn1c(C)c2cnn(-c3ccccc3)c(=O)c2c1C	18%
CSc1ncc(C(=O)N2CCN(c3ccc(F)cc3)CC2)c(C)n1	-5%
CCn1nc(C)c(CCN(C)C(=O)Nc2cccc(Cl)c2C)c1C	-4%
Cc1ccc(NC(=O)Cn2c(=O)n(CCCCC(=O)NCc3ccc4c(c3)OCO4)c(=O)c3ccccc32)cc1	-3%
O=c1oc2ccccc2cc1-c1cn2cc(Cc3ccc(Cl)cc3)sc2n1	-1%
Cc1ccccc1NC(=O)Cn1nnc(C(=O)NCc2cccs2)c1N	6%
CCCCNC(=O)CSc1nc2cc3c(cc2c(=O)n1CCCCCC(=O)NCc1ccc(OC)cc1)OCO3	1%
COc1cccc(NC(=O)C2CCC(CNS(=O)(=O)c3csc(C(N)=O)c3)CC2)c1 (centres undefined)	1%
Cc1ccccc1Nc1sc(C(=O)c2ccc3c(c2)OCO3)c(N)c1S(=O)(=O)c1ccccc1	9%
Cc1cccc(C)c1NC(=O)Cn1nc(C)c2sc3ccccc3c2c1=O	20%
Nc1cccc(-c2cn3ccsc3n2)c1	-50%
CC(=O)c1cccc(NC(=O)c2c(-c3ccccc3)c(-c3ccccc3)nn(C)c2=O)c1	?
CC(NC(=O)Cn1ncc2c3ccccc3n(Cc3ccc(F)cc3)c2c1=O)c1ccccc1 (centres undefined)	-1%
COc1ccc(C(CC(=O)NCc2ccccc2)N2Cc3ccccc3C2=O)cc1 (centres undefined)	12%
COc1ccc(OC)c(CNC(=O)c2nn(-c3ccc(OC)c(Cl)c3)c(=O)c3c2c2ccccc2n3C)c1	-7%
CSc1nc2sc3c(c2c(=O)n1Cc1ccccc1)CCC(C(C)(C)C)C3 (centres undefined)	0%
O=C(CSc1nnc(-c2ccccc2F)o1)Nc1ccccc1Cl	?
CN1CCN(C(=O)Cn2c(-c3cccs3)cc3cc(Cl)ccc32)CC1	-2%
CN(C)c1ccc(/C=C/c2noc(-c3ccccc3O)n2)cc1	-32%
O=C(O)c1cc(-c2cccs2)nc2ccc(Br)cc12	-5%
CCC(=O)N1CCCc2cc(S(=O)(=O)N3CCC(C(=O)NCc4ccc(F)cc4)CC3)ccc21	16%
CCSc1nnc2c(n1)OC(c1cc(OC)c(OC)c(OC)c1)Nc1ccccc1-2 (centres undefined)	-19%
COCCCNC(=O)c1c(C)nn(-c2ccc(F)cc2)c1-n1cccc1	0%
COc1ccc(-c2noc(CN(C(C)C)S(=O)(=O)c3ccc(Br)cc3)n2)cc1	10%
CCCOc1cccc(C2c3c(oc4ccc(F)cc4c3=O)C(=O)N2Cc2ccc3c(c2)OCO3)c1 (centres undefined)	0%
CCOc1ccc(C(=O)c2cn(Cc3ccc(F)cc3)c3ccc(F)cc3c2=O)cc1	14%
COc1ccc(-c2nnc(SCC(=O)Oc3c(C)cccc3C)o2)cc1OC	-3%
CCCCNC(=O)C1CCC(Cn2c(=O)c3sccc3n(CC(=O)N3CCCC3)c2=O)CC1 (centres undefined)	-2%
CCCCNc1nc(Oc2ccc(OCCC)nn2)nc(N(C)C)n1	14%
Cc1cccc(N(C)S(=O)(=O)c2nnc(NC(=O)C(C)Oc3ccccc3)s2)c1 (centres undefined)	-47%
COc1cccc(Cn2c(C)c(CNCc3cccc(C)c3)c(C(=O)O)c2C)c1	0%
COc1ccccc1NS(=O)(=O)c1cc2c(cc1Cl)NC(=O)CO2	-5%
CCc1ccccc1NS(=O)(=O)c1ccc2c(c1)CCN2C(=O)C1CC1	-9%
Cc1ccc(CNC(=O)CC2Oc3ccccc3NC2=O)cc1 (centres undefined)	-1%
COc1ccc(Cc2nc3ccc(C(=O)NCc4ccccc4C)cc3o2)cc1	3%
Cc1ccc(NC(=O)N2CCC(N3CCN(Cc4ccccc4)C(=O)C3=O)CC2)cc1Cl	2%
COc1ccccc1C(=O)Nc1cc2c(cc1N1CCOCC1)n(C)c(=O)n2C	-10%
COc1cccc(OCc2nc3ccccc3n2C)c1	-58%
CCOc1ccc(CCNC(=O)c2ccc(CSCc3ccccc3C)o2)cc1OCC	-7%
Cc1oc(-c2cccc(Cl)c2)nc1CSc1nc2ncccc2[nH]1	2%
Cc1cc(=O)c2cc(C(=O)Nc3ccccc3C)ccc2[nH]1	8%
COc1cccc(S(=O)(=O)NCc2ccc(C(=O)N3CCN(c4ccccc4OC)CC3)cc2)c1	15%
CCCCOc1cccc(NC(=O)c2cccc(C(=O)Nc3cccc(OCCCC)c3)c2)c1	-3%
Cc1ccc(C)c(N2CCN(C(=O)Cn3nc(Cc4cccnc4)c4ccccc4c3=O)CC2)c1	20%

Four of the compounds above, as labelled records:
COc1cccc(NC(=O)C2CCC(CNS(=O)(=O)c3csc(C(N)=O)c3)CC2)c1 (centres undefined)
  miR-21 reporter: 1%
Cc1ccccc1Nc1sc(C(=O)c2ccc3c(c2)OCO3)c(N)c1S(=O)(=O)c1ccccc1
  miR-21 reporter: 9%
Cc1cccc(C)c1NC(=O)Cn1nc(C)c2sc3ccccc3c2c1=O
  miR-21 reporter: 20%
Nc1cccc(-c2cn3ccsc3n2)c1
  miR-21 reporter: -50%

Remaining list, next part.
molecule	miR-21 reporter
CC(=O)N1CCc2c(sc3c2c(=O)n(-c2ccccc2C)c(=O)n3CC(=O)Nc2ccccc2)C1	-31%
Cc1ccc(Cl)cc1-n1ncc2c(NCc3ccc(F)cc3)ncnc21	9%
CCc1cccc(NC(=O)c2nnn(Cc3ccc(SC)cc3)c2N)c1	-12%
Fc1ccccc1N1CCN(c2nc3ccccc3c3nc(-c4ccccc4)nn23)CC1	3%
COc1ccc(NCc2cc3cc4c(cc3n(CC(=O)Nc3ccccc3)c2=O)OCO4)cc1	-8%
Cc1ccc2oc(-c3cccc(NC(=O)c4cccc5c(Br)cccc45)c3)nc2c1	-24%
CCCCOc1ccc(C(=O)Nc2ccc(S(=O)(=O)Nc3nc(C)cc(C)n3)cc2)cc1	15%
Cc1ccc(-n2nc3ccc(NC(=O)Cc4ccc(Cl)cc4)cc3n2)cc1	-16%
CCc1sc(Nc2cccc(C)c2)nc1-c1cc2cccc(OC)c2oc1=O	11%
CCOc1ccc(CCNC(=O)c2cc3c(-c4ccccc4F)nn(C)c3s2)cc1OCC	?
COc1ccc2oc(=O)cc(CN3CCN(c4ccccc4F)CC3)c2c1	4%
Cc1ccc(CNC(=O)CN(c2ccc(C(C)C)cc2)S(=O)(=O)c2c(C)n[nH]c2C)cc1	16%
C=CCN1/C(=C2/SC(=S)N(C)C2=O)Sc2ccccc21	-19%
CCc1ccccc1N1CC(c2nc3ccccc3n2CCCOc2ccc(Cl)cc2)CC1=O (centres undefined)	?
CCC(=O)N1CCc2cc(Br)cc(S(=O)(=O)N(CC)Cc3ccccc3)c21	-4%
CC(C)(C)C(=O)Cn1c(=O)n(CCCCCC(=O)NCc2ccccc2Cl)c(=O)c2sccc21	11%
Cc1cc(C(=O)Nc2cccc(C(F)(F)F)c2)c2c(C)nn(-c3cccc(F)c3)c2n1	?
CCN(CCCNC(=O)c1cc2c(=O)[nH]c3ccc(C)cc3c2s1)Cc1ccccc1	?
CCOc1ccc(C2C(=O)N(C3CCCCCC3)CC(=O)N2Cc2ccc(F)cc2)cc1OC (centres undefined)	0%
COc1ccc(Cn2c(SCc3ccc(C(=O)NCc4cccs4)cc3)nc3ccncc32)cc1	18%
CCn1nc(-c2ccccc2)c(-c2ccccc2)c(C(=O)Nc2ccc(S(N)(=O)=O)cc2)c1=O	22%
COc1cc(OC)cc(C(=O)Nc2nnc3n2CCS3)c1	8%
CC(=O)c1ccc(NC(=O)c2cc3c(=O)oc4ccc(C)cc4c3s2)cc1	1%
Cc1ccc(-c2nc3sc(CCNC(=O)c4ccc(F)c(F)c4)c(C)n3n2)cc1	-25%
CC(=O)N1c2ccc(S(=O)(=O)NCCC(=O)Nc3ccc(Br)c(C)c3)cc2CC1C (centres undefined)	27%
Cc1c(C(=O)NCCc2ccccc2)cccc1-n1cnc2cccnc21	-25%
CCOC(=O)C1CCCN(CC(=O)N2CCCc3c2c(=O)oc2ccc(OCc4ccccc4)cc32)C1 (centres undefined)	-2%
CC1Cn2cc(C(=O)Nc3cccc(C(F)(F)F)c3)c(=O)c3c(Cl)ccc(c32)O1 (centres undefined)	-4%
NC(=O)Cn1c(=O)n(CCCCCC(=O)NCc2ccc3c(c2)OCO3)c(=O)c2sccc21	0%
CC(=O)c1ccc(N2CCN(c3ncnc4c3nc3n4CCCC3)CC2)cc1	?
O=C(CSc1nnc(-c2ccccc2F)o1)N1CCc2ccccc21	0%
Cc1nc2c3ccccc3nc(NNC(=O)CCC(=O)O)n2n1	3%
Cc1ccc(CNC(=O)c2ccc3oc(=O)n(Cc4ccccc4)c3c2)cc1	6%
CCn1c(SCc2ccccc2C)nc(=O)c2c(C(=O)OC)cc(C3CC3)nc21	-3%
Cc1cc(C)cc(C(=O)NCCc2csc(-c3ccc(C(F)(F)F)cc3)n2)c1	-7%
CCC1CCc2nc3sc(C(=O)Nc4cccc(C(F)(F)F)c4)c(N)c3cc2C1 (centres undefined)	-12%
CCNC(=O)c1c(NC(=O)COc2ccc(F)cc2)sc2c1CCCC2	-7%
CCOc1ccc(N(CC)S(=O)(=O)N2CCCC(C(=O)NCCc3ccc(OC)cc3)C2)cc1 (centres undefined)	21%
COc1cc2oc(=O)c(CC(=O)NCCc3ccccc3)c(C)c2cc1Cl	-4%
Cc1cccc(NC(=O)CN2C(=O)C(c3ccc(F)cc3)=NC23CCCCCC3)c1	-9%
COc1ccc(CNC(=O)CCS(=O)(=O)c2cc3c4c(c2)CCN4C(=O)CC3)cc1OC	1%
Cc1ccc(NC(=O)Nc2nnc(N(C)C3CCCCC3)s2)c(Cl)c1	0%
CN(C)c1ccc(CNC(=O)Cn2ccc3cc(S(=O)(=O)N4CCCCCC4)ccc32)cc1	3%
COc1ccc(OC)c(C2C(C(=O)Nc3ccc(C)cc3)=C(C)Nc3nnnn32)c1 (centres undefined)	7%
CCCSCCCNC(=O)c1ccc2nc(Cc3ccccc3)oc2c1	-7%
CCc1ccc(NC(=O)C(=O)NCC(c2cccnc2)N2CCN(c3ccc(F)cc3)CC2)cc1 (centres undefined)	2%
Cc1ccc(NC(=O)CSc2ncccc2C(=O)Oc2ccccc2Cl)cc1Cl	-30%
Cc1ccc(-c2onc(C)c2C)cc1S(=O)(=O)Nc1ccccn1	-11%
COc1ccc(Cn2c(CCC(=O)Nc3cccc(Cl)c3)nc3cccnc32)cc1	-1%
Cc1ccc2scc(N3CCCCC3)c(=O)c2c1	-45%
Cc1ccc(C)c(NC(=O)Cn2ncc3c(C)n(Cc4ccc(F)cc4)c(C)c3c2=O)c1	-9%
O=C(COCc1cc(-c2ccco2)on1)Nc1cccc(Cl)c1Cl	?
Cc1cccc(NC(=O)c2sc(-n3nc(C)c(Cc4ccc5c(c4)OCO5)c3C)nc2C)c1C	3%
Cc1ccc(Cn2ccnc2SCC(=O)Nc2ccc3c(c2)OCCO3)cc1	-18%
CCc1ccc(NC(=O)CSc2nc3ccsc3c(=O)n2C(C)CC)cc1 (centres undefined)	12%
COc1ccc(Nc2ccc3cc(S(=O)(=O)N4CCCC4)ccc3n2)cc1OC	3%
Cc1cc(C)c(Cn2c(=O)n(CCCC(=O)NCc3ccc4c(c3)OCO4)c(=O)c3sccc32)c(C)c1	-2%
Cc1c(Cl)cccc1-n1ncc(C(=O)N2CCN(C)CC2)c1C1CCN(C(=O)OC(C)(C)C)CC1	-3%
CC(C)(C)OC(=O)N1CCC(c2c(C(=O)NCCc3ccccc3)cnn2-c2ccc(F)cc2F)CC1	9%
Cn1ncc2c(Nc3cccc(C#N)c3)ncnc21	-10%

New compounds follow
molecule	miR-21 reporter
CNS(=O)(=O)c1cn(CC(=O)Nc2ccc(OC)cc2OC)cc1S(=O)(=O)NC	3%
Cc1ccc(NC(=O)CSc2c3c(nc4ccccc24)CCCC3)cc1F	15%
O=C(Cn1nnnc1-c1ccccc1F)Nc1ccc(OC(F)(F)F)cc1	14%
COc1ccc(-c2nc3ccccc3s2)cc1NC(=O)c1cc2ccccc2o1	-14%
CC1=C(C(=O)NCc2ccc(Cl)cc2)C2(CCCCC2)OC1=O	1%
CCc1nnc(SCc2nc(-c3ccc(OC)c(OC)c3)oc2C)c2cc3sc(C)cc3n12	-2%
COc1ccccc1CCNC(=O)c1cc2ccccn2n1	-54%
Cc1ccc(C2CCN(C(=O)Nc3ccc(Cl)c(Cl)c3)C2)cc1 (centres undefined)	-42%
COc1ccc(CCNC(=O)Cn2c(=O)c3sccc3n(CC(=O)Nc3cccc(C(F)(F)F)c3)c2=O)cc1OC	-3%
CC(C)n1cc(/C=N/Nc2ccc(Cl)c(C(=O)O)c2)c2ccccc21	-75%
O=C1CC(c2ccccc2)Cc2[nH]c(=O)c(C(=O)Nc3cccc(Cl)c3)cc21 (centres undefined)	17%
COc1ccc(OC)c(CNS(=O)(=O)c2ccc(-c3coc(C)n3)cc2)c1	11%
CCCN(C(=O)c1nn(-c2ccc(C)cc2)c(=O)c2c1c1ccccc1n2C)c1ccccc1C	-11%

Not all compounds are listed. The share of hits here may be higher or lower than overall.
